Compound activity from PubChem BioAssay.
Ecoli rRNA inh – reduced GFP signal of wild-type E. coli, primary screen, bacterial rRNA inhibitor project, GFP/RFP fluorescence, OD600, single point. E. coli WT GFP vs humanized-ribosome RFP mutants, 24 h; stronger effect = lower value; DMSO median 0, no signal -100. GFP signal change (wild-type ribosome), % (test concentration not listed). 350,000 tested, 1.6% active. AID 720706, 2013;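 active = significant combined selectivity score with lowered wild-type GFP, culture density cut under 30%, mutant RFP and density less affected; inactive = any of these conditions unmet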; also: one replicate is shown; some compounds called inactive have numbers as strong as hits
Ecoli rRNA inh OD600 – further read-out of Ecoli rRNA inh, marked with its call; OD600 change, %; measured here: OD600 growth;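 optical density of the mix in the first replicate; 0 = DMSO median and -100 = no signal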
Ecoli rRNA inh RFP – also measured in Ecoli rRNA inh; calls as there; RFP signal change, %; measured here: RFP humanized mutant strains;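 first replicate; 0 = DMSO median and -100 = no signal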
Numbers without * were called inactive; & = joins results of further samples.

#	SMILES	Ecoli rRNA inh	Ecoli rRNA inh OD600	Ecoli rRNA inh RFP
1	C[C@@H]1CCCCO[C@H](CN(C)C(=O)NC2CCCCC2)[C@H](C)CN([C@@H](C)CO)C(=O)c2cc(NC(=O)c3ccccc3)ccc2O1	-7	-12	2.0
2	C[C@H]1CN([C@@H](C)CO)C(=O)c2cc(NC(=O)Nc3ccccc3)ccc2O[C@@H]1CN(C)S(=O)(=O)c1cn(C)cn1	0	3	-1.7
3	Cc1ccc(S(=O)(=O)Nc2cccc3c2O[C@@H](CN(C)S(=O)(=O)c2ccc(F)cc2)[C@H](C)CN([C@H](C)CO)C3=O)cc1	2	4	0.1
4	Cc1nc2cc(NC(=O)C3(C)CCCN(C(C)C)C3)ccc2o1 (stereo unspecified)	12	22	3.1
5	COc1ccccc1C#Cc1ccc2c(c1)O[C@@H](CN(C)Cc1cncnc1)[C@H](C)CN([C@H](C)CO)S2(=O)=O	-17	-23	11
6	C[C@@H]1CN([C@@H](C)CO)C(=O)c2cc(NC(=O)CCC(F)(F)F)ccc2O[C@@H]1CN(C)C(=O)Nc1ccccc1	0	-2	-0.9
7	COCC(=O)Nc1ccc2c(c1)[C@@H]1C[C@H](CC(=O)NCCN3CCCCC3)O[C@H](CO)[C@@H]1O2	5	4	-2.7
8	CC(=O)N1[C@H](C(=O)N(C)C)[C@@H](CO)[C@@H]2Cn3c(ccc(-c4ccccc4)c3=O)[C@@H]21	0	-3	-3.5
9	NCC[C@H]1CC[C@@H](NS(=O)(=O)c2ccc(Cl)cc2)[C@@H](CO)O1	4&2	5&-1	2.3&2.3
10	CN(C)CC(=O)N[C@H]1C=C[C@@H](CC(=O)NCc2ccc(Cl)cc2)O[C@H]1CO	-1	7	-0.4
11	CO[C@H]1CN(C)C(=O)c2ccc(NC(C)=O)cc2OC[C@@H](C)N(Cc2cncnc2)C[C@@H]1C	1	8	-2.0
12	COc1ccc(NC(=O)Nc2cccc3c2O[C@H](CN(C)Cc2ccncc2)[C@H](C)CN([C@@H](C)CO)C3=O)cc1	2	7	-0.3
13	C[C@@H]1CN([C@@H](C)CO)C(=O)c2cccc(NC(=O)C3CCCCC3)c2O[C@@H]1CN(C)Cc1ccncc1	-4	1	0.0
14	CN(C)c1ccc(-c2ccnc3c2CC(C)(C(=O)NCc2ccco2)O3)cc1 (stereo unspecified)	16	21	-3.5
15	CCCC(=O)OC[C@H]1CN(C2CCCC2)S(=O)(=O)c2c(Oc3ccccc3)cccc2O1	26	24	4.1
16	O=C(c1cccnc1)N1CCCCN2[C@H](CO)[C@@H](c3ccc(C#Cc4cccnc4)cc3)[C@@H]2C1	-2	2	1.1
17	COc1ccc(NC(=O)Nc2ccc3c(c2)CC(=O)N([C@H](C)CO)C[C@@H](C)[C@H](CN(C)C(=O)Nc2cccc4ccccc24)O3)cc1	3	2	-1.4
18	COc1ccc(OCC(=O)N2CCCC(Nc3ccc(C)c(C)c3)C2)cc1 (stereo unspecified)	-8	-10	-0.2
19	C[C@@H]1CN([C@@H](C)CO)C(=O)Cc2cc(NC(=O)Cn3cnnn3)ccc2O[C@@H]1CN(C)Cc1ccc(C(F)(F)F)cc1	1	-3	-0.5
20	CNC[C@H]1Oc2ccc(NC(=O)C3CCCCC3)cc2CC(=O)N([C@@H](C)CO)C[C@@H]1C	-2	5	-3.8
21	C/C=C/c1cnc2c(c1)C(=O)N([C@@H](C)CO)C[C@H](C)[C@@H](CN(C)Cc1ccc(F)cc1)O2	-3	-5	0.6
22	CCC(=O)Nc1ccc2c(c1)C(=O)N(C)[C@@H]1CC[C@@H](CC(=O)NCc3ccccc3Cl)O[C@@H]1CO2	1	3	-0.2
23	CNC[C@H]1Oc2ccc(NS(C)(=O)=O)cc2CC(=O)N([C@H](C)CO)C[C@@H]1C	2	-1	-1.5
24	CCNC(=O)N1CCN(c2ccc(N3CCN(Cc4ccccc4)[C@@H](C)C3)c(C)c2)[C@@H](C)C1	-1	4	1.0
25	CCCN(C)C[C@@H]1Oc2cc(C#CCN(C)C)ccc2S(=O)(=O)N([C@@H](C)CO)C[C@@H]1C	1	14	0.5
26	S=C(NCCCc1cnc[nH]1)NCCCN(Cc1ccc(Cl)cc1)c1ccc(Br)cn1	-54	-81	-19
27	COc1ccccc1-c1ccc([C@@H]2[C@H](CO)N3CCCCN(S(=O)(=O)c4cn(C)cn4)C[C@@H]23)cc1	1	6	0.9
28	C[C@@H]1CN([C@H](C)CO)C(=O)c2cccc(NC(=O)Nc3ccc4c(c3)OCO4)c2O[C@H]1CN(C)Cc1ccncc1	-10	-9	2.7
29	COc1ccc(NC(=O)N(C)C[C@H]2Oc3ccc(NC(=O)Cc4ccccc4)cc3C(=O)N([C@@H](C)CO)C[C@H]2C)cc1	4	-1	0.9
30	CN(C)CC(=O)N1[C@@H](C#N)[C@H](c2ccccc2-c2ccc(C(=O)N(C)C)cc2)[C@@H]1CO	3	-16	-0.4
31	C[C@H](CO)N1C[C@H](C)[C@H](CN(C)S(=O)(=O)c2ccc(Cl)cc2)Oc2c(NC(=O)CCCCCC(=O)Nc3ccccc3N)cccc2C1=O	-5	-18	-1.7
32	C[C@@H]1CN([C@H](C)CO)C(=O)c2cccc(NC(=O)NC3CCCCC3)c2O[C@H]1CN(C)Cc1ccc(C(F)(F)F)cc1	0	-7	-0.3
33	O=C(NCC[C@H]1CC[C@H](NC(=O)C2CCCCC2)[C@H](CO)O1)Nc1ccc(Cl)cc1	-20	-18	2.3
34	COc1ccc(C(C(=O)NC(C)(C)C)n2c(-c3ccc(C(F)(F)F)cc3)nc3ccccc32)cc1 (stereo unspecified)	17	22	4.9
35	CCC(=O)Nc1ccc2c(c1)C(=O)N(C)C[C@H](OC)[C@@H](C)CN(C(=O)C1CCC1)[C@H](C)CO2	2	4	-1.9
36	C[C@@H]1CN([C@@H](C)CO)C(=O)c2ccccc2-c2ccccc2CO[C@@H]1CN(C)Cc1cccc(O)c1	-4	-11	-0.5
37	Cc1ccc(S(=O)(=O)N(C)C[C@@H]2Oc3c(NC(=O)Nc4cccc5ccccc45)cccc3C(=O)N([C@H](C)CO)C[C@@H]2C)cc1	1	-2	-0.8
38	CCC(=O)N(C)C[C@@H]1Oc2ncc(-c3ccccc3OC)cc2C(=O)N([C@H](C)CO)C[C@@H]1C	1	13	-4.4
39	CCC(=O)N1CC(=O)N2[C@H](C1)[C@H](c1ccc(-c3cccc(C(=O)N(C)C)c3)cc1)[C@@H]2CO	9	19	-3.8
40	CC(C)NC(=O)N(C)C[C@@H]1Oc2ccc(NC(=O)Nc3ccccc3)cc2CC(=O)N([C@@H](C)CO)C[C@H]1C	1	3	0.0

Some of these compounds in order of length of the SMILES, high to low.
#	SMILES	Ecoli rRNA inh	Ecoli rRNA inh OD600	Ecoli rRNA inh RFP
31	C[C@H](CO)N1C[C@H](C)[C@H](CN(C)S(=O)(=O)c2ccc(Cl)cc2)Oc2c(NC(=O)CCCCCC(=O)Nc3ccccc3N)cccc2C1=O	-5	-18	-1.7
37	Cc1ccc(S(=O)(=O)N(C)C[C@@H]2Oc3c(NC(=O)Nc4cccc5ccccc45)cccc3C(=O)N([C@H](C)CO)C[C@@H]2C)cc1	1	-2	-0.8
32	C[C@@H]1CN([C@H](C)CO)C(=O)c2cccc(NC(=O)NC3CCCCC3)c2O[C@H]1CN(C)Cc1ccc(C(F)(F)F)cc1	0	-7	-0.3
29	COc1ccc(NC(=O)N(C)C[C@H]2Oc3ccc(NC(=O)Cc4ccccc4)cc3C(=O)N([C@@H](C)CO)C[C@H]2C)cc1	4	-1	0.9
28	C[C@@H]1CN([C@H](C)CO)C(=O)c2cccc(NC(=O)Nc3ccc4c(c3)OCO4)c2O[C@H]1CN(C)Cc1ccncc1	-10	-9	2.7
27	COc1ccccc1-c1ccc([C@@H]2[C@H](CO)N3CCCCN(S(=O)(=O)c4cn(C)cn4)C[C@@H]23)cc1	1	6	0.9
35	CCC(=O)Nc1ccc2c(c1)C(=O)N(C)C[C@H](OC)[C@@H](C)CN(C(=O)C1CCC1)[C@H](C)CO2	2	4	-1.9
36	C[C@@H]1CN([C@@H](C)CO)C(=O)c2ccccc2-c2ccccc2CO[C@@H]1CN(C)Cc1cccc(O)c1	-4	-11	-0.5
30	CN(C)CC(=O)N1[C@@H](C#N)[C@H](c2ccccc2-c2ccc(C(=O)N(C)C)cc2)[C@@H]1CO	3	-16	-0.4
38	CCC(=O)N(C)C[C@@H]1Oc2ncc(-c3ccccc3OC)cc2C(=O)N([C@H](C)CO)C[C@@H]1C	1	13	-4.4
33	O=C(NCC[C@H]1CC[C@H](NC(=O)C2CCCCC2)[C@H](CO)O1)Nc1ccc(Cl)cc1	-20	-18	2.3

(listing goes on)
#	SMILES	Ecoli rRNA inh	Ecoli rRNA inh OD600	Ecoli rRNA inh RFP
41	COCC#Cc1cnc2c(c1)C(=O)N([C@H](C)CO)C[C@@H](C)[C@H](CN(C)C(=O)CN1CCOCC1)O2	0	-1	-2.3
42	COc1ccc2c3c([nH]c2c1)[C@@H](CO)N(Cc1ccccn1)CC31CN(Cc2cccc(F)c2)C1	-2	12	1.5
43	CC1Cc2ccccc2N1C(=O)CSc1ccccn1 (stereo unspecified)	-16	-18	2.4
44	O=C(N[C@@H]1CC[C@H](CCn2cc(-c3ccc(F)cc3)nn2)O[C@@H]1CO)c1cnccn1	0	1	-1.9
45	OC[C@@H]1Nc2ccc(C3=CCCCC3)cc2[C@@H]2[C@H]1CCN2Cc1nccs1	3	38	14
46	CCC(C(=O)NC(C)(C)C)N(Cc1ccc(OC)cc1)C(=O)c1snc(C(N)=O)c1N (stereo unspecified)	-7	-9	-0.8
47	CS(=O)(=O)Nc1ccc2c(c1)[C@H]1C[C@H](CC(=O)NCc3ccccc3)O[C@@H](CO)[C@H]1O2	3	1	1.6
48	CO[C@@H]1CN(C)C(=O)c2cc(NS(=O)(=O)c3cn(C)cn3)ccc2OC[C@H](C)N(CCC(F)(F)F)C[C@H]1C	-2	-1	-1.3
49	O=C(c1ccccc1)N1CC[C@H]2[C@H](CO)Nc3ccc(-c4ccccc4F)cc3[C@H]21	-16	-28	2.0
50	CN1CCN(C(=O)C[C@H]2CC[C@H]3[C@@H](COC[C@H](O)CN3CC3CCCCC3)O2)CC1	4	6	-3.5
51	C[C@H](CO)N1C[C@H](C)[C@H](CN(C)S(C)(=O)=O)Oc2c(NC(=O)Nc3ccc(F)cc3)cccc2C1=O	-2	-1	-0.1
52	C[C@H](CO)N1C[C@H](C)[C@H](CN(C)Cc2ccc(C(F)(F)F)cc2)OCc2cnnn2CCCC1=O	-4	-5	2.0
53	O=C(NCc1ccccn1)[C@@H]1CCCN1C(=O)[C@@H]1CCCN1C(=O)c1cccs1	7	6	-0.9
54	COc1ccccc1-c1cn(CC[C@@H]2CC[C@H](NC(=O)c3ccccc3F)[C@H](CO)O2)nn1	-8	-10	0.8
55	O=C(Nc1cc(F)ccc1F)N1C[C@H]2[C@@H](c3ccccc31)[C@@H](CO)N2Cc1cccnc1	-7	4	2.9
56	CC(=O)N(C)C[C@H]1Oc2ccc(N(S(C)(=O)=O)S(C)(=O)=O)cc2C(=O)N(C)C[C@@H]1C	4	-1	-0.8
57	COCC(=O)Nc1ccc2c(c1)C(=O)N(C)C[C@H](OC)[C@@H](C)CN(C(=O)c1ccccc1F)[C@H](C)CO2	0	-10	-1.2
58	OC[C@@H]1CN(CCN2CCOCC2)C[C@H](n2cnc3c(NCc4ccco4)ncnc32)O1	10	12	-1.4
59	CS(=O)(=O)c1ccc(-c2cccc(NC(=O)c3ccc4c(c3)OCO4)c2)nn1	12	-2	1.4
60	Cc1ccc(S(=O)(=O)Nc2ccc3c(c2)C(=O)N([C@H](C)CO)C[C@@H](C)[C@H](CN(C)Cc2ccc(C(=O)Nc4ccccc4N)cc2)O3)cc1	3	11	2.5
61	O=C1C(=Cc2ccncc2)CCCc2ccccc21	-24	-48	-8.5
62	COc1cc(C(=O)NC(CCSC)C(=O)Nc2ccc(N3CCOCC3)cc2)cc(OC)c1OC (stereo unspecified)	5	0	2.9
63	C[C@H](CO)N1C[C@H](C)[C@@H](CN(C)CC2CC2)Oc2cc(C#C[C@@H](C)O)ccc2S1(=O)=O	-1	5	-1.4
64	COCC(=O)N(C)C[C@@H]1Oc2cc(C#CCC(C)C)ccc2S(=O)(=O)N([C@@H](C)CO)C[C@H]1C	-2	-22	4.0
65	CO[C@@H]1CN(C)C(=O)c2ccc(NS(=O)(=O)c3ccccc3C)cc2OC[C@H](C)N(C)C[C@@H]1C	1	-1	-1.1
66	C[C@@H]1CN([C@H](C)CO)S(=O)(=O)c2ccc(C#CC3CC3)cc2O[C@H]1CN(C)C(=O)Nc1cc(F)ccc1F	3	3	5.4
67	C[C@H](O)C#Cc1cnc2c(c1)C(=O)N([C@H](C)CO)C[C@H](C)[C@H](CN(C)C(=O)c1ccc(F)cc1)O2	1	1	0.2
68	CO[C@@H]1CN(C)C(=O)c2cc(NC(=O)Nc3cccc(F)c3)ccc2OC[C@H](C)N(C(=O)C2CC2)C[C@H]1C	-7	-10	2.5
69	CN1C(=O)c2cc(NC(=O)c3cccs3)ccc2OC[C@@H]2O[C@@H](CC(=O)NCC(F)(F)F)CC[C@@H]21	2	10	1.1

These rows are one share of the data; rates above refer to the full screens.
